VDR inh – inhibitors of human vitamin D receptor; P11473; VDR-SRC2-3 peptide fluorescence polarization, 2 h; Potency, µM, without a hit: max response, negative = inhibition, most hits filed as inhibitors; 400,000 compounds, 0.93% hits; AID 504847; active = well fitted inhibition curve with a large enough effect; inconclusive = small, poorly fitted or top-dose-only effect, or another doubt; inactive = no such curve, though single readings can be large or run the other way; also: series mostly up to about 120 µM
Target sequence (P11473 whole entry, looked up): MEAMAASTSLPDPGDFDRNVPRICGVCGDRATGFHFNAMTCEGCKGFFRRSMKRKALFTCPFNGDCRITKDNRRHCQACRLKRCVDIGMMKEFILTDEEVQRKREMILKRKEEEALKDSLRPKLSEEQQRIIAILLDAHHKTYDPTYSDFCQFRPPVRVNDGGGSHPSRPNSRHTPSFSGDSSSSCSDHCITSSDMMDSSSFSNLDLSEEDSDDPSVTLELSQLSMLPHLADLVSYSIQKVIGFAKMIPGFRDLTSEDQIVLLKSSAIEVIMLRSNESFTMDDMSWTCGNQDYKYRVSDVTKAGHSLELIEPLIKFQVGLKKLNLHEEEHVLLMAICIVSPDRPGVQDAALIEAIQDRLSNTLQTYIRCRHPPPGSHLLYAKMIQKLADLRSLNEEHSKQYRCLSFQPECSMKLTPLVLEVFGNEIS
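Compounds are added to VDR with labelled SRC2-3 coactivator peptide and held 2 h at room temperature. Inhibition of the VDR–peptide interaction is then read as a change in fluorescence polarization.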
The depositor's hits bear a star; ? = inconclusive; & = joins results of further samples; [ ] = remark or other dose. % is scaled to controls: 0 for no effect and ±100 for the full control effect; potency is read from the fitted curve at half-maximal effect. Some of the compounds tested. The share of hits here may be higher or lower than overall.

nr	SMILES	VDR inh
1	CC1(C)CC(=O)C(C=NCCN2CCN(C(=O)NC34CC5CC(CC(C5)C3)C4)CC2)=C(O)C1	11%
2	CCCOC(=O)c1c(N)sc(C(=O)OCC)c1C	-9%
3	CC1CCCN(CCCNC(=O)c2cn(C)c3ccc(S(=O)(=O)N(C)C4CCCCC4)cc3c2=O)C1 (stereo unspecified)	12%&-1%
4	COc1ccccc1NC(=S)NCc1ccc2c(c1)OCO2	?
5	Cc1csc(NC(=O)Cc2ccc(Cl)cc2)n1	-9%
6	CCc1ccccc1NC(=O)C1CCN(c2nn3c(=O)cc(C)nc3s2)CC1	2%
7	CCOC(=O)N1CCN(C(=S)Nc2ccc(C)c(C)c2)CC1	14%
8	Cc1ccc(-n2cc(-c3ccccc3)c3c(N4CCC(C)CC4)ncnc32)cc1Cl	5%
9	Cc1nn(CC(=O)OCC(=O)NCCc2ccc(S(N)(=O)=O)cc2)c(C)c1[N+](=O)[O-]	11%
10	O=Cc1ccc(OCc2cn3ccccc3n2)cc1	-9%
11	CC(Sc1nnc(N)s1)C(=O)Nc1ccc2c(c1)OCO2 (stereo unspecified)	28%
12	CN(C1=NS(=O)(=O)c2ccccc21)c1ccc(OC(=O)c2ccccc2)cc1	2%
13	O=C(NCCCN1CCOCC1)C1(c2ccccc2)CCCC1	11%
14	CC(C)c1cc(C(C)C)c(S(=O)(=O)NNC(=O)c2ccncc2)c(C(C)C)c1	-18%
15	Cc1c(Cl)cccc1NC(=O)COC(=O)c1c2c(nc3ccccc13)CCN(Cc1ccccc1)C2	1%
16	CC1CC(=O)Nc2ccccc2N1C(=O)Nc1ccc(F)cc1 (stereo unspecified)	-11%
17	CCN(CC)CCn1c2c(c(SCC(=O)NCc3ccccc3)nc1=O)CCCC2	4%
18	O=C(Cn1ncc2c3ccccc3n(Cc3ccc(Cl)cc3)c2c1=O)N1CCCCCC1	0%
19	NS(=O)(=O)c1ccc(NC(=O)COC(=O)CCC2CCCC2)cc1	6%
20	CCOC(=O)c1cccc(NC(=O)c2cc3cc4cc(OC)ccc4nc3s2)c1	5%
21	O=C(c1cc2cc(Cl)ccc2[nH]1)N1CCN(c2ccccc2F)CC1	5%
22	COc1cc(C)nc(OCCNS(=O)(=O)c2cc(C)ccc2C)n1	21%
23	Cn1cc(/C=C(\NC(=O)c2ccccc2)C(=O)NCCN2CCOCC2)c2ccccc21	2%
24	CCC(=O)Nc1ccc(C2C(=O)c3ccccc3C2=O)cc1	-11%
25	COc1cccc(OC)c1C(=O)OCC(=O)N1CCC(Cc2ccccc2)CC1	-9%
26	O=c1cc(N2CCc3ccccc32)[nH]c(=O)n1-c1ccc(Br)cc1	4%
27	CCC(CO)n1c(SCc2cc([N+](=O)[O-])cc3c2OCOC3)nc2ccccc2c1=O (stereo unspecified)	5%
28	Cc1cc(C(F)(F)F)nc(SCC(=O)NC2CCCCC2)n1	9%
29	Cc1ccnc2nc(C(=O)OCC(=O)c3ccccc3)nn12	17%
30	COc1ccc(/C=N/NC(=O)c2ccoc2C)cc1COc1c(C)cccc1C	6%
31	Cc1ccc(/C=C/c2onc(C)c2S(=O)(=O)N2CCC(C(=O)N(CCC(C)C)Cc3ccco3)CC2)cc1	0%
32	O=C(Nc1ccccc1)/C(=C/c1ccc2c(c1)OCO2)NC(=O)c1ccco1	-6%
33	Cc1ccc2cc3c(N)nn(C(=O)c4cccc(F)c4)c3nc2c1	-7%
34	CC(=O)N(C)c1ccc(NS(=O)(=O)c2cccc3nsnc23)cc1	-23%
35	Cc1ccc(C)n1-c1cccc(S(=O)(=O)N2CCOCC2)c1	-5%
36	O=C(NCc1ccco1)c1ccc(COc2cccc3ccccc23)cc1	-5%
37	CCCc1cc(=O)oc2cc(OC3CCCCC3=O)ccc12 (stereo unspecified)	-5%
38	COc1cccc(CC(NC(C)=O)C(=O)NC2CCN(C(=O)c3ccc(Cl)cc3)CC2)c1OC (stereo unspecified)	17%
39	CN(c1ccccc1)S(=O)(=O)c1ccc(Cl)c(C(=O)Nc2ccccc2N2CCOCC2)c1	-1%
40	CS(=O)(=O)N1CCN(Cc2ccccc2C(F)(F)F)CC1	-14%
41	COc1ccc(N2CCN(CCCNC(=O)C3CCC(CNc4nc(=S)[nH]c5ccccc45)CC3)CC2)cc1 (stereo unspecified)	11%
42	Cc1ccc(Nc2nc(CSc3nnc(-c4cccnc4)n3-c3ccccc3F)cs2)cc1	-10%
43	COc1cccc(/C=N/NC(=O)c2cc(-c3cccn3C)n[nH]2)c1	-6%
44	COC(=O)CC(=O)CSc1nc2cc(C(=O)NC(C)C)ccc2c(=O)n1CCc1ccccc1	10%
45	COc1ccc(/C=N/NC(=O)Cn2nc(C)c([N+](=O)[O-])c2C)cc1	?
46	Cc1cc(C)cc(NS(=O)(=O)c2ccc(NC(=S)NC(=O)c3cccs3)cc2)c1	10%
47	CN1CCN(CCNC(=O)c2ccc3nc(-c4ccc(F)cc4)c(-c4ccc(F)cc4)nc3c2)CC1	-9%
48	Clc1ccc(CSc2nnc(-c3sccc3-n3cccc3)o2)cc1	4%
49	O=C(Cc1ccccc1)NC(C(=O)O)C(O)c1ccc([N+](=O)[O-])cc1 (stereo unspecified)	-17%
50	O=C(CSc1ccc2nnc(-c3cccnc3)n2n1)Nc1ccc(F)cc1	1%

Carrying on.
nr	SMILES	VDR inh
51	CC(=O)c1ccc(OC(=O)Cc2cccc3ccccc23)cc1	3%
52	CCC1CCCCN1CC(=O)Nc1ccc2c(c1)OCCO2 (stereo unspecified)	-6%
53	COc1ccc(NC(=O)COC(=O)c2ccc(Br)o2)cc1OC	-8%
54	C#CCOc1c(/C=C\c2nc(O)c([N+](=O)[O-])c(=O)[nH]2)cc(Br)cc1OC	22µM*
55	O=C(Nc1nccs1)C1CCN(S(=O)(=O)c2ccccc2)CC1	5%
56	CN(C)S(=O)(=O)N1CCC(N2CCN(Cc3ccc(F)cc3)C(=O)C2=O)CC1	1%
57	Cc1ccc(CNC(=O)COc2ccc3c(c2)CCC3)cc1	3%
58	O=C1NC(CCO)C(=O)NC1CCO (stereo unspecified)	-2%
59	C#CCN1C=CC(=O)[C@@H](OC(=O)Nc2ccccc2Br)[C@H]1c1ccccc1Br	11%
60	CCc1nn(CCCC(=O)N2CCN(c3cccc(OC)c3)CC2)c(=O)c2cc3occc3n12	2%
61	C[C@H](O)C(=O)Nc1c(I)c(C(=O)NC(CO)CO)c(I)c(C(=O)NC(CO)CO)c1I	-3%
62	CCc1nccn1S(=O)(=O)c1ccc(OC)c(OC)c1	?
63	COc1ccc2cc(C(=O)NCc3ccccc3)c(=O)oc2c1	17%
64	O=C(CN1CCN(c2ccccn2)CC1)Nc1ccc(F)c(F)c1	-11%
65	O=C(Cc1ccc(Cl)cc1)Nc1ccc(Cl)cn1	18%
66	CNC(=O)C(=O)N1CCC2(CC1)OCCN2S(=O)(=O)c1ccc(C)cc1	5%
67	CCCNC(=O)[C@H]1N2C(=O)c3c(ccc(OC)c3OC)C2SC1(C)C (stereo partly specified)	-13%
68	COc1ccccc1N1CCN(C(=O)C2CCN(S(=O)(=O)c3c(C)noc3/C=C/c3ccc(C)cc3)CC2)CC1	3%
69	CNS(=O)(=O)c1cn(CC(=O)N2CCN(c3ccccc3OC)CC2)cc1S(=O)(=O)NC	-8%
70	CCOc1ncccc1C(=O)N1CCN(c2cc(Cl)ccc2C)CC1	17%
71	COc1ccc(-n2c(-c3ccc(Br)cc3)c[n+]3c2CCCCC3)cc1	1%
72	O=C(O)c1cc(N/N=C/c2ccc3c(c2)OCO3)ccc1Cl	-7%
73	CCOc1ccc2nc(NC(=O)CS(=O)(=O)c3ccccc3)sc2c1	12%
74	CC(=O)c1ccc(OC(C)C(=O)NC2CCCCC2C)cc1 (stereo unspecified)	-4%
75	CN(Cc1nccn1C)C(=O)C1CCC(=O)N(Cc2cccc(C(F)(F)F)c2)C1 (stereo unspecified)	4%
76	COc1ccccc1-c1sc2cc3c(cc2c1C#CC1(O)CCCCC1)OCO3	-17%
77	CCOC(=O)c1cc2c(ccn2C)n1Cc1ccc(C#N)cc1	8%
78	Cc1[nH]c2ccccc2c1Cc1nnc(SCC(=O)NCc2ccco2)o1	-11%
79	CN(C)S(=O)(=O)c1cccc(-c2nnc(SCC(=O)NCCCCCC(=O)O)n2-c2ccc(F)cc2)c1	-3%
80	COc1ccc(NC(=O)C2Cc3cc(S(=O)(=O)N4CCCCC4)ccc3N2C(C)=O)cc1Cl (stereo unspecified)	-2%
81	CCOC(=O)c1c(C)[nH]c(C(=O)C(C)OC(=O)c2oc3ccccc3c2COC)c1C (stereo unspecified)	17%
82	Cc1ccc(NC2CC(=O)N(Cc3ccccc3)C2=O)cc1 (stereo unspecified)	1%
83	Cc1nc2c(-c3ccccc3)c(C)[nH]n2c(=O)c1Cc1ccccc1	8%
84	COc1ccc(CCn2c(=N)c(C(=O)NC3CCCC3)cc3c(=O)n4ccccc4nc32)cc1	121%[activator]
85	C#CCn1c(S(=O)(=O)Cc2ccc(OC)cc2)nc(-c2ccccc2)c1-c1ccccc1	-15%
86	CC1(C)OC2OC3C(CNCCO)OC(c4ccccc4)OC3C2O1 (stereo unspecified)	-5%
87	COc1ccccc1C1CCN(C(=O)C2CCCCC2)CC1	-4%
88	COCCCNC(=O)CCn1c(=O)c2ccccc2n(CC(=O)Nc2ccccc2C)c1=O	22%
89	COc1cccc(CNC(=O)C2CCCN(c3nn4c(=O)cc(C)nc4s3)C2)c1OC (stereo unspecified)	5%
90	CCCCCCC(=O)N(O)C1CC(=O)N(c2ccc(Br)cc2)C1=O (stereo unspecified)	?
91	Cc1cc(C)n2c(Br)c(CN3CCCC(C)C3)nc2n1 (stereo unspecified)	2%
92	Oc1ccc(Cl)cc1C=Nc1ccccc1Br	-19%
93	O=S(=O)(c1ccccc1)N1CCC2(CCN(Cc3ccncc3)CC2)CC1	-6%
94	Cc1noc(C)c1CSc1ncnc2ccccc12	16%
95	COc1ccc2c(c1)OC13CCN(C)CC1C2C(C(=O)c1ccc(F)cc1)C(=O)N3 (stereo unspecified)	-19%
96	COCCNC(=O)CN(C(=O)Cn1nnc2ccccc21)c1ccccc1C	-8%
97	CN(C)C(=O)[C@H]1C[C@H]1[C@@H](O)[C@H](CO)NC(=O)[C@H](Cc1ccccc1)NC(=O)OC(C)(C)C	-4%
98	CC(C)Oc1ccc(S(=O)(=O)N2CCCCC2)cc1NC(=O)CN1C(=O)NC(C)(c2ccccc2)C1=O (stereo unspecified)	-14%
99	Cc1cccc(C)c1NC(=O)Cn1c(=O)n(CCC(=O)NCc2ccco2)c(=O)c2sccc21	-5%
100	Cc1cc(NC(=O)C2C3C(=O)N(CC4CCCO4)C(C(=O)NCc4ccccc4)C34C=CC2(C)O4)no1 (stereo unspecified)	-2%

Continuation.
nr	SMILES	VDR inh
101	Cc1cc(N2CCCC2)n2nc(C)nc2n1	0%
102	Cc1ccc(CSc2nc3cc(C(=O)NC4CCCC4)ccc3c(=O)n2Cc2ccccc2)cc1	8%
103	CCOc1ccc(C(C(=O)NC(C)(C)C)N(CCOC)C(=O)CCC(=O)Nc2nccs2)cc1 (stereo unspecified)	13%
104	COc1ccc(/C=C2\SC(=O)N(CC(=O)NC3CCS(=O)(=O)C3)C2=O)cc1 (stereo unspecified)	-5%
105	Cc1ccc(C)c(N2CCN(C(c3ccc(F)cc3)c3nnc(-c4ccccc4)o3)CC2)c1 (stereo unspecified)	17%
106	Cc1cccc(NC(=O)CSc2ncc3c(n2)-c2cc(Cl)ccc2N(C)S3(=O)=O)c1C	11%
107	CCOCN(C(=O)Cn1c(C(C)O)nc2ccccc21)c1c(C)cccc1CC (stereo unspecified)	19%
108	CC1(C)CC2CC(C)(CN2C(=O)c2cc(-c3ccc(F)cc3)on2)C1 (stereo unspecified)	11%
109	Cc1cccc(N2CCN(C(=O)COc3ccc4c(C)cc(=O)oc4c3C)CC2)c1C	0%
110	Cc1cc2ccccc2c(=O)n1CC(=O)NCC(=O)N(C)C1CCCCC1	-1%
111	CC1(C)Cc2cccc(OCC(=O)N3CCN(c4ccc([N+](=O)[O-])cc4)CC3)c2O1	-5%
112	Cc1ccc(NC(=O)c2cc(CC(C)C)nc3ccccc23)cc1	2%
113	COC(=O)CNC(=O)COC(=O)/C=C/c1ccc(F)cc1	-8%
114	O=C(NCCc1cccnc1)C1CCC(=O)N(Cc2ccc(Cl)cc2)C1 (stereo unspecified)	-4%
115	OC[C@H]1O[C@@H](O[C@@H]2[C@@H](CO)O[C@](O)(CO)[C@H]2O)[C@H](O)[C@@H](O)[C@H]1O	17%
116	CCCCNC(=O)CCn1c(=O)c2ccccc2n(Cc2ccccc2C)c1=O	1%
117	COc1ccc2c(c1)sc1ncc(C(=O)NCc3ccccc3F)c(=O)n12	25%
118	COc1ccc(/C=C(\CC(=O)O)c2nc3ccccc3o2)cc1	-3%

Screening data (PubChem BioAssay)
